gsp agonist: qHTS for Agonist of gsp, the Etiologic Mutation Responsible for Fibrous Dysplasia/McCune-Albright Syndrome: qHTS. gsp mutant cells, cAMP HTRF, 30 min; control for the full effect not named in the record. Potency, µM (top dose mostly 76.9 µM), for inactives: at the top dose activation (cAMP increase), most hits filed as activators. actives 0.13% (n = 340,000); active = well fitted activation curve with a large enough effect; inconclusive = small, poorly fitted or top-dose-only effect, or another doubt; inactive = no such curve, though single readings can be large or run the other way; cell line not stated here;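 note: phosphodiesterase inhibitor Ro 20-1724 added with compounds to block cAMP breakdown; potency is the fitted concentration of half-maximal effect; nearly all actives have a fitted effect of over 60% in size; about a fifth of the inactives were tested at one dose only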
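Cells in DMEM/10% FBS with G418 were pretreated with compounds in DMSO plus […] (300 uM stock) for 30 min at 37C. cAMP was measured by HTRF (cAMP-d2 plus anti-cAMP antibody-K) after 30 min at room temperature.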
Sfp inh: qHTS Assay for Inhibitors of Bacillus subtilis Sfp phosphopantetheinyl transferase (PPTase) | 4'-phosphopantetheinyl transferase ffp (Bacillus subtilis), Q9F4F7 | actives 3.5% (n = 310,000) | Biochemical Sfp PPTase activity, qHTS | AID 1490, 2009 | Potency, µM, for the others: max response, negative = inhibition, most hits filed as inhibitors; active = well fitted inhibition curve with a large enough effect; inconclusive = small, poorly fitted or top-dose-only effect, or another doubt; inactive = no such curve, though single readings can be large or run the other way;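 note: the enzyme is Sfp with the accession as filed and its product quenches rhodamine fluorescence; potency is the fitted concentration of half-maximal effect; 0% = enzyme reaction without inhibitor and -100% = no enzyme wells; top concentration of the series not given in the record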
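Fluorescence-quenching assay: 15 nM Sfp-PPTase preincubated 15 min at room temperature with compound, then 5 uM rhodamine-CoA and 12.5 uM BHQ-2-labelled YbbR peptide added. Fluorescence (ex 525/em 598 nm) read at start and after 30 min; difference gives rate.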
ClpP mod: qHTS Assay for Activators of ClpP; AID 651965, 2013; purified B. subtilis ClpP, FRET peptide cleavage, 20 min; actives 1.9% (n = 340,000); Potency, µM (highest dose often 57.5 µM), without a hit: at the highest dose activity change, negative = active; active = well fitted falling curve with a large enough effect; inconclusive = small, poorly fitted or top-dose-only effect; inactive = no such curve, though single readings can be large or run the other way; note: potency is the fitted concentration of half-maximal effect; the source files actives as falling curves though it sought activators and does not explain the sign; nearly all actives have a fitted effect of over 65% in size; many hits overshoot -100%
Target sequence (P80244 whole entry, looked up): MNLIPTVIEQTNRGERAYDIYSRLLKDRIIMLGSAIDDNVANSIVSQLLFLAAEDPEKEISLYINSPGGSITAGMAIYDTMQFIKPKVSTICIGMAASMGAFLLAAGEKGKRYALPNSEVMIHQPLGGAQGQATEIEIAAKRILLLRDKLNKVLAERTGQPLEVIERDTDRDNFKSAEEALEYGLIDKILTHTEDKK
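ClpP 10 microg/mL final, pH 8 Tris/KCl buffer with BSA, glycerol, Tween-20; compound pinned in; FRET-FV substrate; RT 20 min; Ex320/Em430; ΔFRET vs ADEP 5.8 microM, DMSO, no enzyme.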
TRPV1 potentiator: HTS Assay for Compounds that Act as Potentiators of the Vanilloid Receptor 1. potentiation, % at 8.33 µM. TRPV1-expressing cells, Fluo-8 calcium influx, capsaicin EC20 potentiation; host cell line not named in the record; control for the full effect not named in the record. Transient receptor potential cation channel subfamily V member 1 (Homo sapiens), Q8NER1. actives 0.02% (n = 320,000). AID 540277, 2011; active means potentiation above 80%; inconclusive means 30% to 80%; inactive means below 30%; note: 0% is about no effect
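TRPV1-expressing cells were cultured overnight at 35.5C and loaded with Fluo-8 calcium dye for 40 to 90 min at room temperature. After a 10 s baseline, compound was added and calcium influx was read kinetically for 3 min (ex 480/em 520 nm).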
TRPML1 inh: qHTS for Inhibitors of the Human Mucolipin Transient Receptor Potential 1 (TRPML1); Mucolipin-1 (Homo sapiens), Q9GZU1; TRPML1-inducible cells, Ca2+ dye fluorescence, FDSS; hits give low values; inhibition of EC80 agonist-evoked calcium signal; activity change, negative = inhibition, % (no concentration beside the values); actives 0.02% (n = 390,000); in the data active means activity change below about -50%; inconclusive means about -30% to -50%; inactive means above about -30%;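 note: stimulus is agonist 54-4 at its EC80 concentration; % is set by controls: 0 for no effect and ±100 for the full control effect; compound concentration not given in the record; the text of the record puts the active cut at -80%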
Target sequence (Q9GZU1 whole entry, looked up): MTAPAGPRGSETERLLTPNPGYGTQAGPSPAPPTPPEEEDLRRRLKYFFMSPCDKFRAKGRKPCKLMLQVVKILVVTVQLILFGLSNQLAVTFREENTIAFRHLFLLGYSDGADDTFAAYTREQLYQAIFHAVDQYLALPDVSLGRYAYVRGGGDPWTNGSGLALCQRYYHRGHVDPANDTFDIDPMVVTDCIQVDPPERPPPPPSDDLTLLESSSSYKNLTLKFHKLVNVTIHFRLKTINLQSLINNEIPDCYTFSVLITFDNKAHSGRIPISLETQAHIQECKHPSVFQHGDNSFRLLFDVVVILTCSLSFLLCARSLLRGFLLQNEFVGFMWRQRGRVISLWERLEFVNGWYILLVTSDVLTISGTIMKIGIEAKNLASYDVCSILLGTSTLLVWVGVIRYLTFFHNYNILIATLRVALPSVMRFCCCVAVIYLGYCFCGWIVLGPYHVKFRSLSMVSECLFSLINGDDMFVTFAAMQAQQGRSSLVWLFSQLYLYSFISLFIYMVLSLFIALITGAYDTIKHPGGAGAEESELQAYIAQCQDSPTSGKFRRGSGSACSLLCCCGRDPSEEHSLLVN
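Tet-induced TRPML1-DL cells loaded with Ca8 no-wash calcium dye were read kinetically on FDSS. Compound addition was followed by EC80 agonist 54-4 (4 uM final); inhibition was read over 110 s.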
gsp antag: qHTS for Antagonists of gsp, the Etiologic Mutation Responsible for Fibrous Dysplasia/McCune-Albright Syndrome: qHTS. gsp-mutant cells, cAMP HTRF, 30 min; control for the full effect not named in the record. actives 0.4% (n = 340,000). AID 624288, 2012. Potency, µM (top dose mostly 76.9 µM), for the others: at the highest dose activity change, negative = inhibition, usual class: inhibitors; active = falling curve of any shape with a large fitted effect; inconclusive = falling curve, mostly with a smaller effect; inactive = flat or rising curve; cell line not stated here;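 note: intracellular cAMP measured with PDE inhibitor Ro 20-1724 present during compound exposure; potency is the fitted concentration of half-maximal effect; % is set by controls: 0 for no effect and ±100 for the full control effect; nearly all actives have a fitted effect of over 65% in size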
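HTRF cAMP measurement after 30 min RT detection following 30 min, 37C compound treatment alongside […] (added as 300 uM solution) in G418-selected cells seeded at 2000/well and grown 16–24 h.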
Menin MLL FP FL: qHTS Assay for Inhibitors Targeting the Menin-MLL Interaction in MLL Related Leukemias: Competition With Fluorescein Labeled MLL-derived Peptide | AID 1766, 2009 | Fluorescence polarization, fluorescein-MLL peptide displacement from menin | FP activity change, % at 61.4 µM | 290,000 tested, under 10 active; inconclusive = falling polarisation curve, or a change in total fluorescence; inactive = total fluorescence flat and polarisation flat or rising; no compound was filed as active; the % refers to the polarisation; negative = inhibition;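 note: % of control where 0% means no effect; inhibitors lower the polarisation; unlabelled MLL peptide was the positive control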
Active calls of the source: *; ? = inconclusive; . = no result given; [ ] = remark or other dose.

SMILES	gsp agonist	Sfp inh	ClpP mod	TRPV1 potentiator	TRPML1 inh	gsp antag	Menin MLL FP FL
CCOc1ccc(NS(=O)(=O)c2ccc(C(=O)N(C)CC(=O)Nc3ccc(OC)cc3)cc2)cc1	1%	.	-2.3%	4	2	-5%	.
NS(=O)(=O)c1cccc(NC(=O)CN2CCC(Cc3ccccc3)CC2)c1	33%[15.4 µM]	9%	.	-2	4	-2%	-1.1
Cc1cc(C)c2nc(SCC(=O)NCC3CCCO3)c(C#N)cc2c1 (stereo not given)	10%[15.4 µM]	-22%	.	3	28	-1%	4.3
CCS(=O)(=O)c1nc(S(=O)(=O)c2ccc(C)cc2)c(NCC(C)C)s1	.	.	-1.9%	-3	12	.	.
C=CCN1C(=O)c2ccc(C(=O)N3CCN(S(=O)(=O)c4cc(C)ccc4C)CC3)cc2C1=O	-4%	.	-1.8%	0	-8	-11%	.
Cc1ccnc(NS(=O)(=O)c2ccc(NC(=O)c3cc(-c4ccccc4)nc4ccccc34)cc2)n1	0%[15.4 µM]	21%	4.0%	25	26	-15%	4.4
CCOc1ccccc1NC(=S)Nn1cnnc1	13%	7.1µM*	-2.4%	-31	28	2%	.
O=C(c1cc(N2C(=O)C3C4CCC(C4)C3C2=O)ccc1Cl)N1CCCCCC1 (stereo not given)	-2%	20%	.	-3	21	-11%	-5.6
COc1c(-c2ccccc2)oc2c(ccc3occc32)c1=O	-17%	-27%	-15%	-5	10	?	8.8
Cc1cc(C(=O)OCC(=O)N(CC(C)C)c2c(N)n(Cc3ccccc3)c(=O)[nH]c2=O)c2ccccc2n1	0%	.	5.4%	-8	22	2%	.
O=C(NCc1ccc(N2CCCC2=O)cc1)c1cn(Cc2ccccc2)nn1	10%	16%	1.3%	1	-7	9%	1.4
COc1ccc(C(=O)O/N=C(/C)c2cccs2)cc1	17%	6%	-2.7%	-10	-24	-11%	2.2
O=c1cc(O)n(-c2ccccc2F)c(=S)[nH]1	-7%	50µM*	0.7%	14	18	10%	?
CCOC(=O)C1CCN(C(=O)Nc2c(-c3ccccc3)noc2C)CC1	11%[15.4 µM]	11%	-0.5%	?	-4	16%	-0.4
O=C1c2ccccc2C(Nc2ccc(S(=O)(=O)N3CCCCC3)cc2)N1Cc1ccco1 (stereo not given)	-52%[inhibitor]	40µM*	-0.5%	11	0	-11%	0.7
CC(=O)N(c1ccc(Br)cc1)C1C=CS(=O)(=O)C1 (stereo not given)	16%	24%	-0.1%	4	-7	1%	2.5
O=S(=O)(Nc1ccccc1)N1CCCCC1	17%	.	.	.	23	4%	.
O=C1c2ccccc2C(=O)N1CC(O)Cn1nnc2ccccc21 (stereo not given)	-19%	6%	0.6%	9	9	-5%	1.9
CN(C)CCn1ccc(O)c(Cc2ccc(Cl)cc2)c1=O	-1%	15%	-3.0%	-1	12	8%	-8.7
CCn1c(=O)[nH]c2cc(C(=O)Nc3cc(C)cc(C)c3)ccc2c1=O	-5%[15.4 µM]	12%	.	9	10	5%	7.5
CCc1c(O)nc2sc3ccccc3n2c1=O	12%	10%	-0.7%	5	23	0%	1.6
COC(=O)c1ccc(C2C(C#N)=C(N)Oc3cc(N)ccc32)cc1 (stereo not given)	37%	9%	.	11	-14	-5%	9.5
O=S(=O)(NCc1ccccn1)c1ccc(Br)s1	1%	5%	0.5%	-8	-9	3%	-0.2
COCCNC(=O)c1cc(-c2ccccc2)nn1Cc1cc(C)no1	-18%	.	1.0%	.	35	2%	.
CN1CCCN(Cc2cccc3ccccc23)CC1	3%	-30%	1.6%	-12	-14	11%	-6.7

Next part, starting with the last 2 of the part before.
SMILES	gsp agonist	Sfp inh	ClpP mod	TRPV1 potentiator	TRPML1 inh	gsp antag	Menin MLL FP FL
COCCNC(=O)c1cc(-c2ccccc2)nn1Cc1cc(C)no1	-18%	.	1.0%	.	35	2%	.
CN1CCCN(Cc2cccc3ccccc23)CC1	3%	-30%	1.6%	-12	-14	11%	-6.7
O=C(CN1N=C(c2ccccc2)CCC1=O)NCc1ccccc1	8%[15.4 µM]	19%	.	-9	-21	8%	2.6
O=C(O)c1cc(NC(=O)c2ccc3c(c2)C(=O)N(Cc2ccccc2)C3=O)cc(C(=O)O)c1	31%	15%	1.5%	-5	4	8%	.
C[C@H]1CN([C@@H](C)CO)C(=O)CCCn2nncc2CO[C@@H]1CN(C)C(=O)c1ccncc1	-66%[inhibitor]	.	1.7%	.	-5	.	.
O=C(O)c1ccc(/C=N/O)cc1	22%[15.4 µM]	4%	.	1	?	5%	1.5
O=C(Nc1nc(-c2ccccc2)cs1)c1ccc(N2CCOCC2)c([N+](=O)[O-])c1	-5%[15.4 µM]	6%	-4.5%	-6	-3	32µM*	0.4
C(=N\NCc1ccccc1)/c1ccc2nccnc2c1	?	9%	0.4%	6	-4	7%	3.4
O=C(CSc1nnc(CNc2ccc(Cl)cc2)o1)Nc1nc2ccccc2s1	?	-11%	-0.2%	7	-17	6%	0.7
O=C(Nc1ccccc1N1CCOCC1)c1ccc(Br)o1	-8%	10%	-3.0%	-1	-13	4%	2.1
COc1ccc(C(=O)c2cnc[nH]2)cc1	-17%[15.4 µM]	5%	.	-12	3	3%	-1.0
Cc1ccc(S(=O)(=O)Oc2ccc(/C=C(/NC(=O)c3ccccc3)C(=O)Nc3ccccc3)cc2)cc1	27%	9%	-0.9%	17	0	-12%	1.1
O=C(O)c1ccc(NS(=O)(=O)c2cc(Cl)sc2Cl)cc1	7%[15.4 µM]	?	.	?	5	-33%	-4.3
Cc1nnc(NC(=O)CCn2c(=O)oc3ccccc32)s1	2%[15.4 µM]	13%	.	-8	-1	-2%	-3.5
CCCC(=O)Nc1ccc2oc(=O)ccc2c1	-4%[15.4 µM]	14%	25µM*	-8	-12	7%	-1.2
CCCOc1ccc(C2C(C(=O)c3cc4ccccc4o3)=C(O)C(=O)N2c2cc(C)on2)cc1 (stereo not given)	?	7%	1.2%	1	0	18%	2.4
COc1ccc(C(=O)CSc2nnc(CNC(=O)c3ccccc3F)n2C)cc1OC	-1%	3%	.	5	-3	3%	0.4
Cc1cccc(CN2C(=O)N/C(=C/c3cc(C)n(-c4cc(C)ccn4)c3C)C2=O)c1	-2%	-11%	-8.5%	-1	-12	1%	4.7
Cc1[nH]c2ccccc2c1C(=O)CSc1nncn1C	-14%	6%	0.1%	7	17	15%	3.5
CCOC(=O)C1CCN(C(=O)CCc2c(C)nc3cc(-c4ccc(OC)cc4OC)nn3c2C)CC1	3%	14%	.	4	-7	6%	2.9
CC(=O)N1CCOCCOCCN(C(C)=O)CCOCC1	-82%[inhibitor]	10%	.	-1	5	0%	2.9
COc1ccc(CCNC(=O)C2CCN(S(=O)(=O)N3CCOCC3)CC2)cc1OC	6%	14%	0.0%	4	-17	5%	-0.1
COc1ccccc1CN(C(=O)CCl)C(C(=O)NC1CCCCC1)c1ccncc1 (stereo not given)	-11%	-13%	1.0%	6	8	10%	-3.0
OCCN(CCO)CC(O)COc1ccc(C23CC4CC(CC(C4)C2)C3)cc1 (stereo not given)	-20%	-18%	1.4%	-8	21	21%	5.4
NS(=O)(=O)c1ccc2c(c1)oc(=O)c1cc(S(N)(=O)=O)ccc12	?	3%	.	-7	?	4%	3.8
CCCn1c(N)c(C(=O)CN(C)CC(=O)Nc2cc(C)ccc2C)c(=O)[nH]c1=O	-4%[15.4 µM]	.	-5.0%	4	1	4%	.
Cc1cc(C(=O)NC(C)C2CCCO2)c(C)o1 (stereo not given)	-40%[inhibitor]	7%	-8.6%	-6	9	8%	-11
The list continues.
SMILES	gsp agonist	Sfp inh	ClpP mod	TRPV1 potentiator	TRPML1 inh	gsp antag	Menin MLL FP FL
Cc1cccn2c(=O)c3cc(C#N)c(=O)n(Cc4cccnc4)c3nc12	?	-3%	2.8µM*	0	-2	7%	7.9
COc1ccc(C(=O)Nc2nnc(CCS(=O)(=O)c3ccc(C)cc3)s2)cc1	-60%[inhibitor]	13%	0.7%	8	35	-6%	-1.7
O=C(NNS(=O)(=O)c1ccccc1[N+](=O)[O-])c1cccc(Br)c1	-4%[15.4 µM]	-12%	0.2%	6	10	1%	-1.9
COc1cc(NC(=O)COC(=O)C=C(C)C)c(C)cc1[N+](=O)[O-]	5%	7%	.	-2	-5	-13%	1.9
C#CCN(C[C@H]1[C@H](OC(=O)NCc2ccco2)[C@H](OC(=O)NCc2ccco2)C[C@@H](C(=O)OC)[C@H]1C(=O)OC)S(=O)(=O)c1ccc(C)cc1	-23%	.	2.6%	.	4	.	.
CCCCC(C(=O)O)C(C)CC(=O)Nc1cccc(C(=O)O)c1 (stereo not given)	-3%	14%	0.6%	5	64	8%	-0.9
CCN(CC)C(=O)[C@H]1CC(CC(=O)NCCCN(C)C)C(=O)N2CCc3c([nH]c4ccccc34)[C@]12C (stereo not given in full)	.	.	-3.1%	.	-4	18%	.
CCOC(=O)c1ccc(NC(=O)CSc2nnc(CNc3ccc(C)cc3)n2C)cc1	2%	16%	0.2%	22	-8	-16%	-0.1
O=C(O)c1ccc2c(=O)n3c(nc2c1)/C(=C/c1cccc(Cl)c1Cl)CC3	-32%[inhibitor]	7%	.	13	-2	-28%	2.1
COc1ccc(Br)cc1/C=C/C(=O)Nc1ccc2ccccc2c1	-35%[inhibitor]	7%	-6.6%	-28	-3	-1%	5.0
CCCN(CC(=O)Nc1ccccc1C)C(=O)c1cn2ccccc2n1	-6%	.	32µM*	-9	-10	13%	.
COC(=O)c1ccc(COc2ccc(/C=N/NC(=O)C(=O)Nc3ccc(OC)cc3)cc2OC)o1	-9%[15.4 µM]	6%	.	-1	10	8%	3.3
CC(C)(C)NS(=O)(=O)c1ccc(NS(=O)(=O)c2ccc(F)cc2)cc1	-52%[inhibitor]	15%	-1.2%	0	-14	21%	1.3
